Env fusion inh: inhibitors of HIV-1 Env-driven cell-cell fusion, primary screen, HeLa-JRFL effector, CEM21 target cells, luciferase | inhibition, % at 12.3 µM | actives 1.1% (n = 360,000) | AID 651610, 2012;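 active = mean replicate inhibition score of at least 50 and every replicate individually at or above 50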;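 note: 0% = plate neutral controls and 100% = maraviroc near 300 nM; one replicate is shown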
Starred values were filed as active, the others as inactive; [ ] = remark or other dose. The list is partial. The share of hits here may be higher or lower than overall.

`O=C(C[C@H]1C=C[C@@H](NS(=O)(=O)c2cccc(F)c2)[C@@H](CO)O1)NCc1ccc2c(c1)OCO2` gave Env fusion inh -5.7[16.7 µM].
`CN1C(=O)c2cc(NC(=O)C3CCOCC3)ccc2OC[C@@H]2O[C@@H](CC(=O)NCCc3ccncc3)CC[C@H]21` gave Env fusion inh 0.2[16.7 µM].
For CO[C@H]1CN(C)C(=O)c2cc(NC(=O)C3CCCCC3)ccc2OC[C@H](C)NC[C@H]1C the results were Env fusion inh -19.9[16.7 µM].
O=C(C(=O)N1CCC(CNS(=O)(=O)c2ccccc2)CC1)c1cc2ccccc2o1 was read as Env fusion inh -23.1.
Screening C[C@H](CO)N1C[C@H](C)[C@H](CN(C)CC2CC2)Oc2cc(C#Cc3cccnc3)ccc2S1(=O)=O returned Env fusion inh 2.2[16.7 µM].
Screening Cc1cc(C)cc([C@H]2C[C@]34CN(Cc5ccccc5)S(=O)(=O)[C@H]3C[C@H]2O4)c1 returned Env fusion inh -8.8.
Screening COc1ccc(CN2C[C@H](COCc3ccccc3)Oc3cccc(Oc4ccc(C(C)C)cc4)c3S2(=O)=O)cc1 returned Env fusion inh 19.7.
Screening CO[C@H]1CN(C)C(=O)c2ccc(NS(=O)(=O)c3cccc(Cl)c3)cc2OC[C@H](C)NC[C@@H]1C returned Env fusion inh -1.1[16.7 µM].
CC(C)(C)CN1C(=O)C(=O)NC[C@@H]1CC1CCCCC1 was read as Env fusion inh -36.5.
For O=C(NCC1CC1)[C@H]1[C@H](CO)[C@H]2Cn3c(ccc(C4=CCCC4)c3=O)[C@@H]1N2CCC(F)(F)F the results were Env fusion inh -1.5[16.7 µM].
For O=C(N[C@H]1CC[C@@H](CCNS(=O)(=O)c2ccc(F)cc2)O[C@H]1CO)c1cccnc1 the results were Env fusion inh -0.8[16.7 µM].
Cc1noc(C)c1NC(=O)Nc1cccc2c1O[C@H](CN(C)C(=O)Nc1c(C)noc1C)[C@@H](C)CN([C@@H](C)CO)C2=O was read as Env fusion inh -3.3[16.7 µM].
COc1cccc(NC(=O)N(C)C[C@@H]2OCc3ccccc3-c3c(n(C)c4ccccc34)C(=O)N([C@H](C)CO)C[C@@H]2C)c1 was read as Env fusion inh 49.3[16.7 µM].
For CC(C)NC(=O)NCC[C@H]1CC[C@@H](NS(=O)(=O)c2ccc(Oc3ccccc3)cc2)[C@H](CO)O1 the results were Env fusion inh 12.5[16.7 µM].
C[C@H](CO)N1C[C@H](C)[C@H](CN(C)Cc2ccc(C(=O)O)cc2)Oc2ccc(NC(=O)C3CC3)cc2C1=O was read as Env fusion inh 6.1[16.7 µM].
`CO[C@@H]1CC[C@@H]2CCN(C)C(=O)C[C@H](c3ccccc3)CN(C)C(=O)c3cc(C#N)ccc3OC[C@H]1O2` gave Env fusion inh 7.3[16.7 µM].
O=C(NN=Cc1ccco1)C(=O)Nc1cccc(C(F)(F)F)c1 was read as Env fusion inh -26.6.
`CNC(=O)C[C@@H]1CC[C@H]2[C@@H](COC[C@@H](O)CN2Cc2ccc(Cl)c(Cl)c2)O1` gave Env fusion inh 9.6[16.7 µM].
CCCCNc1cccc2c1S(=O)(=O)N[C@H](C)CO2 was read as Env fusion inh 0.5.
Screening CCCCCCCCN1C(=O)[C@@H](CC(=O)NCCCOC)C[C@@]2(C(=O)OC)C1=C[C@H](C1CCCC1)O[C@@H]2C returned Env fusion inh 10.6.
Screening C[C@@H]1CN(c2ccc(N3CCNC[C@H]3C)cc2C#N)CCN1Cc1ccccc1 returned Env fusion inh 9.5.
`CO[C@H]1CN(C)C(=O)c2ccc(NC(C)=O)cc2OC[C@@H](C)N(C(=O)c2ccccc2)C[C@H]1C` gave Env fusion inh -7.0[16.7 µM].
`Cc1noc(C)c1NC(=O)Nc1ccc2c(c1)C(=O)N([C@@H](C)CO)C[C@H](C)[C@@H](CN(C)Cc1ccc(C(F)(F)F)cc1)O2` gave Env fusion inh 23.6[16.7 µM].
CCOC(=O)[C@]12CCC=C1N(Cc1ccccc1)C(=O)[C@H](CC(=O)N1CCN(C(=O)c3ccco3)CC1)C2 was read as Env fusion inh 16.9.
Screening O=C(CN1CCOCC1)N[C@H]1CC[C@H](CCNC(=O)C2CCC2)O[C@H]1CO returned Env fusion inh -40.5[16.7 µM].
Screening CN(C)CC(=O)Nc1ccc2c(c1)[C@H]1C[C@H](CC(=O)NCc3ccc(-c4ccccc4)cc3)O[C@@H](CO)[C@H]1O2 returned Env fusion inh -6.2[16.7 µM].
C/C=C/c1ccc([C@H]2[C@@H](CO)N(C(=O)CN(C)C)C23CN(C(=O)C2CC2)C3)cc1 was read as Env fusion inh -11.1[16.7 µM].
Screening CO[C@H]1CN(C)C(=O)c2ccc(NS(=O)(=O)c3ccccc3)cc2OC[C@H](C)N(Cc2cccnc2)C[C@@H]1C returned Env fusion inh 2.2[16.7 µM].
Screening COC(=O)c1cc(S(=O)(=O)NCC2CCN(C(=O)C(=O)c3cccs3)CC2)cs1 returned Env fusion inh 7.8.
For O=C(Nc1cccc(Cl)c1)N[C@@H]1CC[C@@H](CCn2cc(Cc3ccccc3)nn2)O[C@H]1CO the results were Env fusion inh 13.7[16.7 µM].

Random excerpt: 6 records from the list.
C[C@H](CO)N1C[C@H](C)[C@H](CN(C)Cc2ccc(C(=O)O)cc2)Oc2ccc(NC(=O)C3CC3)cc2C1=O was read as Env fusion inh 6.1[16.7 µM].
O=C(C(=O)N1CCC(CNS(=O)(=O)c2ccccc2)CC1)c1cc2ccccc2o1 was read as Env fusion inh -23.1.
`O=C(C[C@H]1C=C[C@@H](NS(=O)(=O)c2cccc(F)c2)[C@@H](CO)O1)NCc1ccc2c(c1)OCO2` gave Env fusion inh -5.7[16.7 µM].
For CC(C)NC(=O)NCC[C@H]1CC[C@@H](NS(=O)(=O)c2ccc(Oc3ccccc3)cc2)[C@H](CO)O1 the results were Env fusion inh 12.5[16.7 µM].
O=C(NN=Cc1ccco1)C(=O)Nc1cccc(C(F)(F)F)c1 was read as Env fusion inh -26.6.
For O=C(NCC1CC1)[C@H]1[C@H](CO)[C@H]2Cn3c(ccc(C4=CCCC4)c3=O)[C@@H]1N2CCC(F)(F)F the results were Env fusion inh -1.5[16.7 µM].

New compounds follow.
Screening Cc1noc(C)c1NC(=O)Nc1ccc2c(c1)C(=O)N([C@@H](C)CO)C[C@@H](C)[C@@H](CN(C)Cc1ccc(C(F)(F)F)cc1)O2 returned Env fusion inh -8.5[16.7 µM].
For CO[C@H]1CC[C@H]2CCN(C)C(=O)[C@H](C)[C@H](OC)CN(C)C(=O)c3cc(C#N)ccc3OC[C@H]1O2 the results were Env fusion inh 10.7[16.7 µM].
Screening Cc1nn(C)cc1NC(=O)C[C@@H]1CC[C@H]2[C@@H](COc3ccc(NC(=O)c4cccc(F)c4)cc3C(=O)N2C)O1 returned Env fusion inh 20.5[16.7 µM].
Screening CN(C)C(=O)C[C@@H]1CC[C@@H]2[C@@H](COc3ccc(NC(=O)C4CCCCC4)cc3C(=O)N2C)O1 returned Env fusion inh -27.5[16.7 µM].
For CCCNC(=O)Nc1ccc2c(c1)C(=O)N(C)C[C@H](OC)[C@@H](C)CN(Cc1ccncc1)[C@H](C)CO2 the results were Env fusion inh -43.1[16.7 µM].
`O=C(C[C@@H]1C[C@H]2c3cc(NS(=O)(=O)c4ccc(F)cc4)ccc3O[C@H]2[C@@H](CO)O1)NC1CCCCC1` gave Env fusion inh -0.5[16.7 µM].
For COc1ccc(CNC(=O)N(C)C[C@H]2OCc3ccccc3-c3ccccc3C(=O)N([C@@H](C)CO)C[C@H]2C)cc1 the results were Env fusion inh -34.7[16.7 µM].
`COC(=O)C[C@H]1C=C[C@@H](NC(=O)Nc2ccc(C(F)(F)F)cc2)[C@H](CO)O1` gave Env fusion inh -5.9[16.7 µM].
For CCS(=O)(=O)Nc1ccc2c(c1)C(=O)N(C)[C@H]1CC[C@@H](CC(=O)NCc3ccccc3F)O[C@H]1CO2 the results were Env fusion inh -1.7[16.7 µM].
`C[C@H](CO)N1C[C@H](C)[C@@H](CN(C)S(=O)(=O)c2ccsc2)OCc2ccccc2-c2c(n(C)c3ccccc23)C1=O` gave Env fusion inh -6.7[16.7 µM].
Screening C[C@H](NC(=O)N(C)C[C@@H]1OCc2ccccc2-c2c(n(C)c3ccccc23)C(=O)N([C@H](C)CO)C[C@@H]1C)c1ccccc1 returned Env fusion inh 43.2[16.7 µM].
COc1cccc(NC(=O)Nc2ccc3c(c2)C(=O)N(C)C[C@@H](OC)[C@@H](C)CN(C)[C@H](C)CO3)c1 was read as Env fusion inh 11.7[16.7 µM].
Screening Cc1c(NC(=O)/C(C#N)=C/c2ccc3ccccc3c2)c(=O)n(-c2ccccc2)n1C returned Env fusion inh 6.4[16.7 µM].
Screening CO[C@@H]1CN(C)C(=O)c2ccc(NC(=O)C3CCCCC3)cc2OC[C@H](C)N(Cc2cccnc2)C[C@@H]1C returned Env fusion inh -8.0[16.7 µM].
C[C@H](NC(=O)[C@@H]1N[C@@H]2c3ccc(C4=CCCC4)c(=O)n3C[C@@H]2[C@H]1CO)c1ccccc1 was read as Env fusion inh 6.6[16.7 µM].
Screening COc1ccccc1CCn1cnc(-c2ccc(F)cc2)c1C(C)C returned Env fusion inh -7.1.
COc1ccccc1CCn1cnc(-c2ccccc2)c1C(C)C was read as Env fusion inh -28.2.
For CC(C)CNc1cccc2c1S(=O)(=O)N(Cc1ccc(F)cc1)[C@@H](C)[C@H](c1ccccc1)O2 the results were Env fusion inh 15.2.
For COc1ccc(NC(=O)Nc2ccc3c(c2)[C@H]2C[C@H](CC(=O)O)O[C@@H](CO)[C@H]2O3)cc1 the results were Env fusion inh 6.9[16.7 µM].
O=C([C@@H]1[C@@H](CO)[C@@H]2Cn3c(ccc(-c4ccccc4F)c3=O)[C@H]1N2C(=O)C1CCC1)N1CCCCC1 was read as Env fusion inh 22.9[16.7 µM].
Screening CCC(=O)Nc1ccc2c(c1)OC[C@H](C)N(C(=O)COC)C[C@H](C)[C@H](OC)CN(C)C2=O returned Env fusion inh 5.4[16.7 µM].
`C[C@H](CO)N1C[C@H](C)[C@@H](CN(C)S(=O)(=O)c2ccccc2)Oc2ccc(N(C)C)cc2CC1=O` gave Env fusion inh -3.6[16.7 µM].
Screening CON(C)C(=O)C(C)(C)CC#CCN(CC#Cc1ccccc1)S(=O)(=O)c1ccc(C)cc1 returned Env fusion inh 18.2.
O=C(C[C@H]1C[C@H]2c3cc(NS(=O)(=O)c4ccc(F)cc4)ccc3O[C@H]2[C@@H](CO)O1)NC1CCCCC1 was read as Env fusion inh 4.9[16.7 µM].
Screening COc1ccccc1CCn1cnc(-c2cccc(F)c2)c1CC(C)C returned Env fusion inh -10.7.
Screening CO[C@@H]1CN(C)C(=O)c2cc(NS(C)(=O)=O)ccc2OC[C@H](C)N(C)C[C@@H]1C returned Env fusion inh -18.8[16.7 µM].
`CCCC(=O)Nc1ccc2c(c1)C(=O)N(C)C[C@@H](OC)[C@@H](C)CN(C(=O)C1CCCC1)[C@@H](C)CO2` gave Env fusion inh 6.0[16.7 µM].
Screening C[C@H]1CN([C@@H](C)CO)C(=O)CCCn2cc(nn2)CO[C@H]1CN(C)Cc1cccc2c1OCCCO2 returned Env fusion inh -12.6[16.7 µM].
Screening CO[C@@H]1CN(C)C(=O)c2cc(NS(=O)(=O)c3ccc(C)cc3)ccc2OC[C@@H](C)N(C(=O)NC(C)C)C[C@H]1C returned Env fusion inh -12.9[16.7 µM].
Screening C[C@@H](NC(=O)C[C@@H]1C[C@H]2c3cc(N(C)C)ccc3O[C@H]2[C@@H](CO)O1)c1ccccc1 returned Env fusion inh -13.9[16.7 µM].
COc1ccc(S(=O)(=O)Nc2ccc3c(c2)[C@H]2C[C@@H](CC(=O)NCC4CC4)O[C@H](CO)[C@H]2O3)cc1 was read as Env fusion inh -3.9[16.7 µM].
For CO[C@H]1CN(C)C(=O)c2ccc(NC(=O)Nc3ccccc3Cl)cc2OC[C@H](C)NC[C@H]1C the results were Env fusion inh 2.4[16.7 µM].
`O=C(C[C@H]1CC[C@@H]2[C@H](COC[C@H](O)CN2Cc2cc(F)cc(F)c2)O1)Nc1nccs1` gave Env fusion inh -5.7[16.7 µM].
For CO[C@@H]1CC[C@@H]2CCN(C)C(=O)CCCN(C)C(=O)c3cc(C#N)ccc3OC[C@@H]1O2 the results were Env fusion inh 4.3[16.7 µM].
Screening CCc1cnc(N2[C@H](CO)[C@@H](c3ccc(C#CCC4CCCC4)cc3)[C@@H]2C#N)s1 returned Env fusion inh 21.4[16.7 µM].
Screening CS(=O)(=O)N1C[C@@H](O)COC[C@@H]2O[C@H](CC(=O)NC3Cc4ccccc4C3)CC[C@H]21 returned Env fusion inh -0.5[16.7 µM].
`O=C(NCc1ccccn1)[C@H]1[C@H](CO)[C@H]2Cn3c(ccc(C4=CCCC4)c3=O)[C@@H]1N2Cc1cccnc1` gave Env fusion inh 26.0[16.7 µM].
`CS(=O)(=O)N1[C@@H]2Cn3c(ccc(-c4cccc(F)c4)c3=O)[C@H]1[C@@H](C(=O)N1CCCCC1)[C@@H]2CO` gave Env fusion inh 5.5[16.7 µM].
Screening CCCCOc1ccc(C(=O)NC2CCCCN(C)C2=O)cc1 (stereo not given) returned Env fusion inh -2.0.
For CC(C)C[C@@H]1NC(=O)[C@@H]2CSCCS(=O)(=O)N2C1=O the results were Env fusion inh 5.8.
Screening CNC[C@@H]1OCCCC[C@@H](C)Oc2ccc(NC(=O)Nc3ccc(F)cc3)cc2C(=O)N([C@@H](C)CO)C[C@H]1C returned Env fusion inh 5.5[16.7 µM].
CC(C)NC(=O)Nc1ccc2c(c1)C(=O)N([C@H](C)CO)C[C@@H](C)[C@H](CN(C)C(=O)Nc1cccc3ccccc13)O2 was read as Env fusion inh -0.1[16.7 µM].
`O=C(C[C@@H]1C[C@@H]2c3cc(NC(=O)Nc4ccccc4)ccc3O[C@@H]2[C@H](CO)O1)NCc1ccccc1` gave Env fusion inh -31.3[16.7 µM].
`COC(=O)[C@]12C[C@H](CC(=O)N3CCSCC3)C(=O)N(Cc3ccccc3)C1=C[C@H](C(C)C)O[C@@H]2C1CC1` gave Env fusion inh 10.1.
`COc1cccc(NC(=O)N2C[C@H](O)COC[C@@H]3O[C@@H](CC(=O)NC4Cc5ccccc5C4)CC[C@H]32)c1` gave Env fusion inh -12.1[16.7 µM].

Bioassay records from PubChem.
